Assay outcomes as filed in PubChem.
RanGTP-Impb inh – inhibitors of RanGTP-importin-beta interaction, primary screen, biochemical, FRET, CFP-Ran, YFP-importin-beta, homogeneous | cell-free CFP-Ran/YFP-importin-beta FRET ratio | 300,000 compounds, 1.1% hits | AID 2216 | inhibition, % (test concentration not listed);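 active means most replicates above 15%; inconclusive means exactly half above 15%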;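 further: 0% = DMSO wells and 100% = Ran loaded with GDP instead of GTP; wells of about 40 µL received 100 nL stock; the first replicate is given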
Beta cell apopt – beta cell apoptosis inhibition. INS-1E cytokine-induced death, ATP luminescence, 48 h; percent of positive-control rescue, neutral wells zero. protection from apoptosis, % (test concentration not listed). 300,000 compounds, 0.8% hits. AID 435005;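 active means all replicates at 75% or more, or half of them and the mean; inconclusive means half reach 75% but not the mean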;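 further: 0% = cytokine-treated negative control wells and 100% = positive control rescue; higher means more ATP so stronger rescue from cytokine killing; wells of about 40 µL received 100 nL stock; the first replicate is given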
T cruzi inh – blocks replication of Trypanosoma cruzi. inhibition, % (concentration not given with the values). 300,000 compounds, 1.4% hits. T. cruzi beta-gal in NIH3T3, luminescence, 90 h;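 active means mean inhibition across valid replicates above about 55%, limit read from the data; inconclusive means mean below that limit but half or more replicates reach it; inactive means mean below it, under half of replicates reach it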;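 further: signal also drops with host cell toxicity which is not excluded here; 0% = plate median of DMSO wells and 100% = zero luminescence signal; higher percent means less beta-gal luminescence so fewer parasites; stock transfer was 50 nL into about 50 µL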
Calb FLC – affects C. albicans growth with fluconazole; growth inhibition, % (no concentration beside the values); C. albicans CaCi-2 (fluconazole-resistant clinical isolate) + fluconazole, Alamar Blue growth, 48 h; 300,000 compounds, 0.57% hits; AID 1979;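 active means most replicates above 75%; inconclusive means exactly half above 75%; inactive means most below 75%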;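 further: all wells also contain fluconazole at 8 µg/ml as a sub-toxic cotreatment; 0% = median of DMSO wells and 100% = median of geldanamycin control wells; wells of about 8 µL received 7.5 nL stock; the first replicate is given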
ALR inh – inhibitors of human sulfhydryl oxidase ALR; AID 485317; 290,000 compounds, 3.8% hits; purified ALR, DTT oxidation, H2O2 HRP-luminol luminescence; inhibition, % (no concentration beside the values); P55789;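 active means mean and each replicate at 75% or more; inconclusive means only one of the two met; inactive means neither met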;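 further: stock transfer was 7.5 nL into about 7.5 µL; 0% = neutral wells and 100% = wells with inactivated enzyme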
Target sequence (P55789 whole entry, looked up): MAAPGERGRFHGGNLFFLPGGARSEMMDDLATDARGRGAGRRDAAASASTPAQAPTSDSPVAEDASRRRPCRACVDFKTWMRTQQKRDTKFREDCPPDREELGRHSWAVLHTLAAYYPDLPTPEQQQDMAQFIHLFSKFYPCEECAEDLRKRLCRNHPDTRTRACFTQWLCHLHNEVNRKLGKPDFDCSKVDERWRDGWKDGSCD
MLL AF4-AF9 inh – inhibitors of human MLL-AF4/AF9 interaction; AlphaScreen, biotin-AF4 peptide binding to FLAG-AF9; inhibition, % at 10 µM; P42568; 350,000 compounds, 0.47% hits;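 active means every replicate reaching a set inhibition limit, whatever the replicate mean, cut at about 25% in these data; inconclusive means mean inhibition reaches that limit but some replicates miss it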;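 further: 0% = plate neutral control median and 100% = total signal loss; the record names both 10 and 1 µM as test concentration; the first replicate is given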
Target sequence (P42568 whole entry, looked up): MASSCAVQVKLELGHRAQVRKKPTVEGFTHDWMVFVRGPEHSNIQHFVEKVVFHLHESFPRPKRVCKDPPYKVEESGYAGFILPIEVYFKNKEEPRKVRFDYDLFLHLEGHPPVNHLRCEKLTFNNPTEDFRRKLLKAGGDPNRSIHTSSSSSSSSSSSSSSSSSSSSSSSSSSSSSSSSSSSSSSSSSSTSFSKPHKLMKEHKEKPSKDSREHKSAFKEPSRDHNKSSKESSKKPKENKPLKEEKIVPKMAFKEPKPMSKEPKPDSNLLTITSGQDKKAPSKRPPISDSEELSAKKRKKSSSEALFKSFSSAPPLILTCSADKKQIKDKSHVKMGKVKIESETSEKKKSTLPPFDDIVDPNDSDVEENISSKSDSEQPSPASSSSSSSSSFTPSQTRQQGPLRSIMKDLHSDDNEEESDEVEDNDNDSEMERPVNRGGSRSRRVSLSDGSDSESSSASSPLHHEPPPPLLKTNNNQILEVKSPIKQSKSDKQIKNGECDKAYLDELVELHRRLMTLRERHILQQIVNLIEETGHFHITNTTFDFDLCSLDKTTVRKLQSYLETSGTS
FGF22 binding – FGF22 (human) thermal shift binding; recombinant FGF22 thermal shift, SYPRO orange fluorescence; percent of sucrose octasulfate shift, DMSO zero; Q9HCT0; calls only at 9.99 µM; 340,000 compounds, 1.5% hits; AID 651658;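 active means melting point raised past a set limit in the mean and every replicate; inconclusive means no clear call; three in four hits are not shown here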
Target sequence (Q9HCT0 whole entry, looked up): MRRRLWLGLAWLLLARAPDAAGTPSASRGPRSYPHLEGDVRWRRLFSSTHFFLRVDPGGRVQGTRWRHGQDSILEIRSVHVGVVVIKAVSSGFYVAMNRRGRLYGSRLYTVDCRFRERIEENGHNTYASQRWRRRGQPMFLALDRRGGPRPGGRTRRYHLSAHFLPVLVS
Ecoli rRNA inh – inhibitors of bacterial rRNA selective over humanized ribosomes | AID 720706 | E. coli WT GFP vs humanized-ribosome RFP mutants, fluorescence, 24 h; hits give low values; DMSO median 0, no signal -100 | GFP signal change (wild-type ribosome), % (concentration not given with the values) | 350,000 compounds, 1.6% hits;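 active means significant combined selectivity score with lowered wild-type GFP, culture density cut under 30%, mutant RFP and density less affected; inactive means any of these conditions unmet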; further: one replicate is shown; some compounds called inactive have numbers as strong as hits
Ecoli rRNA inh OD600 – second read-out of Ecoli rRNA inh, no call of its own (marks repeat the call); OD600 change, %; measured here: OD600 growth;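 optical density of the mix in the first replicate; 0 = DMSO median and -100 = no signal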
Ecoli rRNA inh RFP – recorded beside Ecoli rRNA inh, whose call it bears; RFP signal change, %; measured here: RFP humanized mutant strains;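 first replicate; 0 = DMSO median and -100 = no signal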
Starred values were filed as active, the others as inactive; i = inactive; ? = inconclusive; . = no result given. A portion of the library, so the mix of outcomes need not match the whole.

cpd | mol | ALR inh | FGF22 binding | Ecoli rRNA inh RFP | RanGTP-Impb inh | Ecoli rRNA inh OD600
1 | CC1CCN(c2oc(-c3ccccc3Cl)nc2C#N)CC1 | -3.3 | . | . | ? | .
2 | COc1ccc(C(=O)N2CCCC(O)C2)cc1OC1CCN(C(C)C)CC1 (stereo not given) | -0.9 | i | -1.4 | -3.3 | 5.7
3 | CN(C)c1ccc(C(=O)OCC(=O)Nc2ccc(N3CCOCC3)cc2)cc1 | -5.4 | i | -21.3 | 1.4 | -53.5
4 | O=C(c1ccco1)N(Cc1cccc(Br)c1)C1CCS(=O)(=O)C1 (stereo not given) | -1.0 | i | -1.8 | -0.3 | -0.8
5 | O=C(CN1CCN(c2ccccc2F)CC1)c1ccc(O)c(O)c1 | 99.0* | i | -0.6 | ? | 11.3
6 | COc1ccc(CCNC(=O)COc2ccc(-c3ccccc3)cc2)cc1OC | -3.7 | . | . | 2.5 | .
7 | N/C(=N\OC(=O)Cc1ccc([N+](=O)[O-])cc1)c1ccc([N+](=O)[O-])cc1 | 97.3* | i | 5.7 | -1.5 | -1.8
8 | CCC(CC)c1nn2c(N)c(/C=C3\C=Nc4ccccc43)c(=O)nc2s1 | 33.7 | i | 0.6 | -1.7 | 16.5
9 | CN(/N=C/C=C/c1ccccc1)C1=NS(=O)(=O)c2ccccc21 | . | i | -1.9 | 0.2 | -5.1
10 | O=C(C1CCCCC1)N1CCC(O)(c2ccc(Cl)cc2)CC1 | -1.6 | . | . | ? | .
11 | O=C(CN1CC(c2ccccc2)CC1=O)OCc1cccc(Br)c1 (stereo not given) | 13.7 | . | . | 3.1 | .
12 | CCOC(=O)c1ccc(NC(=O)CNC(=O)c2ccco2)cc1 | 17.6 | i | -1.4 | -0.7 | -0.1
13 | Cn1nnnc1SCC(=O)N1CCOCC1 | 39.8 | . | . | 8.7 | .
14 | CCOc1cc(/C=C\[N+](=O)[O-])ccc1OCC(=O)Nc1ccccc1C | -0.5 | . | . | -1.9 | .
15 | Cn1nc(C(=O)NC2CCCc3ccccc32)ccc1=O (stereo not given) | -5.5 | i | -1.3 | 1.0 | 9.7

cpd | Beta cell apopt | MLL AF4-AF9 inh | Ecoli rRNA inh | Calb FLC | T cruzi inh
1 | 1.6 | . | . | -5.9 | 23.0
2 | -6.7 | -1.9 | 2.2 | -1.1 | -4.8
3 | 15.3 | 6.5 | -46.1 | 25.7 | -8.8
4 | -2.4 | -0.2 | 4.4 | 22.1 | -12.6
5 | 6.8 | 2.5 | 9.8 | 5.5 | -20.2
6 | -5.4 | . | . | 27.0 | 10.1
7 | -2.5 | -0.4 | -7.9 | -10.4 | 35.4
8 | -3.7 | 1.9 | 6.9 | 1.4 | 10.6
9 | -4.7 | 2.8 | 6.7 | -5.5 | -5.7
10 | -6.0 | . | . | 3.0 | -8.6
11 | -4.3 | . | . | 15.5 | -15.5
12 | -6.7 | 1.8 | 4.6 | 3.4 | -4.2
13 | -6.0 | . | . | 12.5 | -4.5
14 | 80.0* | . | . | -9.8 | 36.6
15 | 1.9 | 0.7 | 10.1 | -1.3 | -14.9

Following part
cpd | mol | ALR inh | FGF22 binding | Ecoli rRNA inh RFP | RanGTP-Impb inh | Ecoli rRNA inh OD600
16 | O=C(CN1C(=O)NC2(CCOc3ccccc32)C1=O)c1cccs1 (stereo not given) | -6.2 | i | 1.1 | . | 2.8
17 | NNC(=O)c1sccc1OCc1cccc(C(F)(F)F)c1 | -6.6 | i | 0.7 | 2.3 | -11.2
18 | CNC(=O)c1cc(NC(=O)CCn2nc(-c3ccccc3)c3ccccc3c2=O)ccc1OC | 4.0 | i | -0.3 | -1.0 | -15.9
19 | CCOc1ccc(C(C(=O)Nc2ccc(F)cc2)N(C(=O)Cn2nnc3ccccc32)C2CC2)cc1 (stereo not given) | -11.6 | . | 0.3 | -0.6 | -5.5
20 | O=[n+]1cc(-c2cccc3ccccc23)n([O-])c2c1CCC2 | -11.9 | . | . | 3.9 | .
21 | CC1(c2cc([N+](=O)[O-])cc([N+](=O)[O-])c2)CC(C)(C)N(C(=O)c2ccccc2)c2ccccc21 (stereo not given) | 0.1 | . | . | -2.4 | .
22 | CC(=O)c1nn(-c2cccc(Br)c2)cc1C(=O)c1ccc(C)cc1 | 0.8 | . | . | 3.1 | .
23 | O=C(N/N=C/c1ccc([N+](=O)[O-])o1)c1ccc(NS(=O)(=O)c2cccs2)cc1 | -6.3 | i | 2.0 | 1.5 | -5.2
24 | CCn1cc([N+](=O)[O-])c(C(=O)Nc2c(C)nn(Cc3cccc(F)c3)c2C)n1 | 1.5 | i | -0.9 | 6.1 | 8.8
25 | CCCCN(C(=O)c1cccc(S(=O)(=O)N2CCN(C)CC2)c1)c1c(N)n(CCCC)c(=O)[nH]c1=O | -2.6 | i | 4.1 | -3.9 | 16.6
26 | ONC(=Nc1ccc(Cl)cc1)c1ccccc1Cl | ? | . | . | -4.8 | .
27 | CC(OC(=O)c1ccc(NC(=O)CC#N)cc1)C(=O)NC(=O)NC1CCCCC1 (stereo not given) | 12.0 | i | 11.9 | -0.8 | 3.0
28 | COC(=O)c1c(-c2ccc(OC)cc2)oc2ccccc12 | 1.3 | i | -10.9 | 1.6 | -6.2
29 | CSCCC(NC(=O)c1ccco1)C(=O)N1CC(C)OC(C)C1 (stereo not given) | 1.4 | i | -3.2 | . | 8.7
30 | CCc1ccc(CNC(=O)C2CC(=O)N(C3CCCC3)C2)cc1 (stereo not given) | 2.0 | i | -0.9 | ? | 6.6

cpd | Beta cell apopt | MLL AF4-AF9 inh | Ecoli rRNA inh | Calb FLC | T cruzi inh
16 | -3.9 | 2.3 | -1.7 | . | .
17 | 4.8 | -0.5 | -16.9 | -10.5 | 30.2
18 | 3.2 | 0.2 | -11.3 | -3.3 | 10.8
19 | 4.9 | -4.6 | -3.6 | 34.8 | 22.9
20 | -3.8 | . | . | 17.7 | -2.8
21 | 21.1 | . | . | 11.6 | 67.0*
22 | 1.4 | . | . | 94.7* | 7.9
23 | -4.4 | -1.5 | -10.9 | 23.2 | 17.2
24 | 3.7 | 0.3 | 2.8 | 0.6 | -5.5
25 | 3.4 | -2.5 | 15.1 | -1.4 | -5.8
26 | -4.5 | . | . | -0.1 | -2.6
27 | . | 0.8 | 8.1 | -14.6 | 12.4
28 | 2.9 | -2.5 | -7.2 | -21.8 | -16.9
29 | 5.7 | -21.8 | 5.9 | . | .
30 | -3.1 | -0.1 | -3.8 | -2.1 | -0.6

Exported as labelled records: part of the list above.
21	CC1(c2cc([N+](=O)[O-])cc([N+](=O)[O-])c2)CC(C)(C)N(C(=O)c2ccccc2)c2ccccc21 (stereo not given)
  ALR inh: 0.1; FGF22 binding: .; Ecoli rRNA inh RFP: .; RanGTP-Impb inh: -2.4; Ecoli rRNA inh OD600: .; Beta cell apopt: 21.1; MLL AF4-AF9 inh: .; Ecoli rRNA inh: .; Calb FLC: 11.6; T cruzi inh: 67.0*
18	CNC(=O)c1cc(NC(=O)CCn2nc(-c3ccccc3)c3ccccc3c2=O)ccc1OC
  ALR inh: 4.0; FGF22 binding: i; Ecoli rRNA inh RFP: -0.3; RanGTP-Impb inh: -1.0; Ecoli rRNA inh OD600: -15.9; Beta cell apopt: 3.2; MLL AF4-AF9 inh: 0.2; Ecoli rRNA inh: -11.3; Calb FLC: -3.3; T cruzi inh: 10.8
25	CCCCN(C(=O)c1cccc(S(=O)(=O)N2CCN(C)CC2)c1)c1c(N)n(CCCC)c(=O)[nH]c1=O
  ALR inh: -2.6; FGF22 binding: i; Ecoli rRNA inh RFP: 4.1; RanGTP-Impb inh: -3.9; Ecoli rRNA inh OD600: 16.6; Beta cell apopt: 3.4; MLL AF4-AF9 inh: -2.5; Ecoli rRNA inh: 15.1; Calb FLC: -1.4; T cruzi inh: -5.8

More compounds follow.
cpd | mol | ALR inh | FGF22 binding | Ecoli rRNA inh RFP | RanGTP-Impb inh | Ecoli rRNA inh OD600
31 | CCSc1nc2sc3c(c2c(=O)n1-c1ccc(C)cc1)CCN(C)C3 | . | i | 1.3 | -21.4 | 0.6
32 | Cc1c(F)cccc1NS(=O)(=O)c1ccc2c(c1)c(=O)n(C)c(=O)n2C | -0.8 | . | 0.0 | 1.9 | 0.8
33 | O=C(O)c1c[nH]c2c(C(F)(F)F)cccc2c1=O | -7.3 | . | . | -3.1 | .
34 | COC/C=C/C1=CC2=CC(=O)C(C)(OC(=O)c3cnc4ccccc4n3)C(=O)C2=CO1 (stereo not given) | -24.3 | . | . | -16.2 | .
35 | CCN(CC)S(=O)(=O)c1ccc(NC(=O)c2cccc3c2C(=O)N(CCOC)C3)cc1 | -9.4 | i | -5.3 | 18.5* | 17.0
36 | CCc1cc2c(NCc3ccccc3)nc(C)nc2s1 | . | i | -7.2 | -1.2 | -31.6
37 | CCC(C(=O)NC1CC(C)(C)NC(C)(C)C1)c1ccccc1 (stereo not given) | -18.7 | i | 1.6 | 3.9 | 10.0
38 | CN(c1ccccc1)S(=O)(=O)c1cc(C(=O)Nc2nc3ccccc3[nH]2)ccc1Cl | 94.8* | . | . | 1.2 | .
39 | CC(=O)NCCc1cnc[nH]1 | -21.4 | i | . | 9.2 | .
40 | CCCCOc1ccc(N(CC(=O)NC(C)(C)CC)C(=O)CCC(=O)Nc2ccccn2)cc1 | . | i | 2.9 | -1.5 | 9.1
41 | CCOC(=O)C1CCN(C(=O)c2cccc(S(=O)(=O)NCc3ccccc3)c2)CC1 | -3.1 | i | -4.2 | . | -0.1
42 | COc1ccc(-n2c(C)cc(C(=O)Cn3nnc4ccccc4c3=O)c2C)cc1 | -3.2 | . | . | 6.3 | .
43 | C=CCn1c(SCC(=O)NCC2CCCO2)nc2scc(-c3ccc(OC)cc3)c2c1=O (stereo not given) | 2.1 | i | -1.9 | 6.6 | 0.8
44 | O=C(CCSCCc1ccccn1)Nc1cc(F)ccc1F | -13.2 | . | . | ? | .
45 | COc1cc(C(=O)NCCCCc2ccccc2)cc(OC)c1OC | -0.7 | i | -3.1 | -1.7 | -1.8
46 | CCOCCCNC(=S)N1CCN(Cc2ccco2)CC1 | -28.8 | i | 2.8 | 0.8 | -5.2

cpd | Beta cell apopt | MLL AF4-AF9 inh | Ecoli rRNA inh | Calb FLC | T cruzi inh
31 | . | 7.3 | 3.0 | 19.0 | 21.6
32 | 5.9 | 1.3 | -7.1 | -5.8 | 22.4
33 | -1.1 | . | . | -15.5 | -0.4
34 | 3.5 | . | . | 9.8 | 0.5
35 | -13.9 | 2.6 | 27.1 | -1.7 | 6.2
36 | 12.2 | 3.7 | -30.0 | 20.3 | 19.8
37 | -1.6 | -1.7 | 10.8 | 13.0 | -5.2
38 | 19.2 | . | . | -2.9 | 24.5
39 | . | 0.7 | . | -6.7 | -2.6
40 | -0.9 | 0.0 | 9.4 | 40.0 | 6.1
41 | -1.9 | 1.6 | -4.0 | . | .
42 | 1.4 | . | . | 1.2 | 22.9
43 | 0.2 | -2.9 | 3.3 | -2.8 | 5.2
44 | 0.1 | . | . | -3.2 | -10.7
45 | -3.4 | 2.7 | -2.2 | 12.5 | 0.6
46 | -4.0 | -0.5 | 3.3 | 3.1 | -2.8
